Source: PubChem BioAssay (National Center for Advancing Translational Sciences (NCATS))
TRPV1 PAM = HTS Assay for Compounds that Act as Potentiators of the Vanilloid Receptor 1. Transient receptor potential cation channel subfamily V member 1 (Homo sapiens), Q8NER1. TRPV1-expressing cells, Fluo-8 calcium influx, capsaicin EC20 potentiation; host cell line not named in the record; control for the full effect not named in the record. potentiation, % at 8.33 µM. hit rate 0.02% among 320,000. AID 540277, 2011; active means potentiation above 80%; inconclusive means 30% to 80%; inactive means below 30%; further: 0% is about no effect
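Cells expressing TRPV1 were dye-loaded with Fluo-8 and read kinetically: 10 s baseline, 3 min after compound (agonist portion), then 2 min after EC20 capsaicin (allosteric enhancer portion). Calcium-bound dye fluorescence at 480/520 nm.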
TRPML1 inh = qHTS for Inhibitors of the Human Mucolipin Transient Receptor Potential 1 (TRPML1) | Mucolipin-1 (Homo sapiens), Q9GZU1 | TRPML1-inducible cells, Ca2+ dye fluorescence, FDSS; active compounds read low; inhibition of EC80 agonist-evoked calcium signal | hit rate 0.02% among 390,000 | AID 624415, 2012 | activity change, negative = inhibition, % (no concentration beside the values); in the data active means activity change below about -50%; inconclusive means about -30% to -50%; inactive means above about -30%;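 further: stimulus is agonist 54-4 at its EC80 concentration; on the % scale 0 is the no-effect control and ±100 the full control effect; compound concentration not given in the record; the text of the record puts the active cut at -80%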
Target sequence (Q9GZU1 whole entry, looked up): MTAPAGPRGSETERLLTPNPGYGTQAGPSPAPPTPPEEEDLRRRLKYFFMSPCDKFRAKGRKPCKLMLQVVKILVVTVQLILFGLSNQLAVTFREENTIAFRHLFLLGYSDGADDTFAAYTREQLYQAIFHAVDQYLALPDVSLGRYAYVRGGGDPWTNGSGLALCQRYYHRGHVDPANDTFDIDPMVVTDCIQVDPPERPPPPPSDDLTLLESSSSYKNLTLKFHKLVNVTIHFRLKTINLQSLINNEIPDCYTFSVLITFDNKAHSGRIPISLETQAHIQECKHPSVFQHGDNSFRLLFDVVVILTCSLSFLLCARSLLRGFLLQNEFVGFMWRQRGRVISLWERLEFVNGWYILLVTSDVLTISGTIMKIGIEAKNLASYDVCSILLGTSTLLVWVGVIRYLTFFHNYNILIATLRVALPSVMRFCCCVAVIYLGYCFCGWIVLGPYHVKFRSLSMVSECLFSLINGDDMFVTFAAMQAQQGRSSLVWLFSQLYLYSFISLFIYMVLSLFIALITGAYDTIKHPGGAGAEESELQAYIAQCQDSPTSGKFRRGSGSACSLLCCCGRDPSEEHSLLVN
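Tet-induced TRPML1-DL cells loaded with Ca8 no-wash calcium dye were read kinetically on FDSS. Compound addition was followed by EC80 agonist 54-4 (4 uM final); inhibition was read over 110 s.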
Six1-Eya2 blk = qHTS Assay for Inhibitors of the Six1/Eya2 Interaction; Homeobox protein SIX1 (Homo sapiens) + Protein phosphatase EYA2 (Homo sapiens), …; AlphaScreen GST-Six1/His-Eya2 binding, biochemical; active compounds read low; control for the full effect not named in the record; activity change, % (concentration not given with the values); hit rate 0.56% among 360,000; AID 651725, 2012; in the data active = activity change below about -65%; inconclusive = about -30% to -65%; inactive = above about -30%; further: on the % scale 0 is the no-effect control and ±100 the full control effect
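GST-Six1 + His-Eya2 (5X stock: 250/500 nM); Tris pH 8.0, 300 mM NaCl, 0.05% BSA, 0.02% Tween 20; GSH donor/Ni acceptor beads; 1 h 37 °C dark; AlphaScreen readout.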
D2 PAM = Beta-Arrestin HTS for Positive Allosteric Modulators of the Human D2 Dopamine Receptor: Potentiators | DiscoveRx D2 beta-arrestin cells, luminescence, 90 min; 100% = 57 uM dopamine signal | AID 624464, 2012 | D(2) dopamine receptor (Homo sapiens), P14416 | hit rate 0.23% among 360,000 | potentiation, % (no concentration beside the values); active = potentiation of 50% or more; inconclusive = 30% to 50%; inactive = 30% or less;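 further: compound concentration not given in the record; tested on top of an EC20 dose of dopamine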
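PathHunter D2 cells, attached overnight at 37 deg C, received compound in DMSO plus dopamine at EC20 (50 nM final) for 90 min at 37 deg C. Beta-arrestin recruitment was read as luminescence after 1 h with detection reagent at ambient temperature.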
CtBP-E1A blk = qHTS Assay for Inhibitors of the CtBP/E1A Interaction; CtBP / adenovirus E1A interaction (AlphaScreen); AlphaScreen GST-E1A/His-CtBP binding, 1536-well; active compounds read low; control for the full effect not named in the record; activity change, % (no concentration beside the values); hit rate 0.49% among 340,000; in the data active means activity change below about -65%; inconclusive means about -30% to -65%; inactive means above about -30%; further: on the % scale 0 is the no-effect control and ±100 the full control effect
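AlphaScreen with 125 nM GST-E1A and 125 nM His-CtBP (5X stocks) in Tris pH 8.0, 300 mM NaCl, BSA, Tween 20, TCEP. Compounds preincubated 2 h at 37 deg C, then glutathione donor/nickel acceptor beads added for 1 h at 37 deg C in dark.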
TRPML1 ag = qHTS for Agonists of the Human Mucolipin Transient Receptor Potential 1 (TRPML1). TRPML1-expressing cells, Ca2+ dye fluorescence, FDSS; host cell line not named in the record; reference of the full effect not given here. Mucolipin-1 (Homo sapiens), Q9GZU1. hit rate 0.12% among 410,000. activation, % (concentration not given with the values); in the data active = activation above about 50%; inconclusive = about 30% to 50%; inactive = below about 30%; further: 0% is about no effect; the text of the record puts the active cut at 80%
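Cells: TRPML1-DL, 1X Tet inducer, ~16 h at 37 degrees C/5% CO2. Dye: ABD Ca8 no-wash + quencher, 45-90 min RT. Read: 10 s baseline, compound add, 110 s agonist phase; 54-4 EC80 (4uM final), 110 s antagonist phase.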
Numbers without * were called inactive; ? = inconclusive; · = not tested or not shown; & = joins results of further samples.

molecule	D2 PAM	CtBP-E1A blk	TRPV1 PAM	TRPML1 ag	TRPML1 inh	Six1-Eya2 blk
CCCc1ccc(OCCNC(=O)CC)cc1	-8	-9	-6	0.6	20	4
CS(=O)(=O)N1CCC(C(=O)NNC(=O)Nc2ccc(F)c(Cl)c2)CC1	-8	0	2	0.6	8	9
Cc1cc(N2CCCC2)ccc1NC(=O)CN1C(=O)NC(C)(c2ccccc2)C1=O (configuration not stated)	-3	-20	1	0.3	-15	2
CC(C)(C)NS(=O)(=O)c1ccc(NC(=O)C2CCCCC2)cc1	1	-2	6	1.0	4	2
CCN(CC(=O)Nc1ccc(OC)cc1)C(=O)c1ccc(Cl)c(S(=O)(=O)N2CCCC2)c1	13	-1	0	-0.6	-2	11
CCSc1ccc(-c2cc(NC=O)c3ncc(-c4cc(OC)c(OC)c(OC)c4)n3c2)cc1	-8	-21	·	-0.7	·	-20
O=C(Cc1c(F)cccc1Cl)NNC(=O)c1ccncc1	-3	5	27	-0.5	-8	6
COc1ccc(CNC(=O)COC(=O)CCOc2ccc(C)cc2)cc1	-8	3	3	0.2	53	7
CC(C)N(C)c1ncnc2c1ncn2[C@H]1CN(Cc2ccncc2)C[C@@H](CO)O1	4	5	·	-0.1	·	-3
NS(=O)(=O)c1cccc(NC(=O)CSc2nn(-c3ccccc3)c(=S)s2)c1	-8	-7	-8	3.5	-14	-8
CC(C)C[C@H]1CN(CCCC[C@H]2CNC(=O)C(=O)N2CCc2ccccc2)C(=O)C(=O)N1CCc1ccccc1	·	10	·	-0.8	·	15
O=[N+]([O-])c1ccccc1NCCNc1ncc(C(F)(F)F)cc1Cl	-32	-11	?	0.9	6	?
CC(=O)Oc1ccc2occ(/C=N/c3cc(=O)[nH]c(=S)[nH]3)c(=O)c2c1	-1	-15	2	·	·	-9
CCC(Sc1ccccn1)C(=O)Nc1cccc([N+](=O)[O-])c1 (configuration not stated)	-11	-19	-18	2.7	-19	-10
CN(C)S(=O)(=O)c1ccc(=S)[nH]c1	-9	-14	-6	-0.3	-2	2
Cc1ccc(-n2nnc3c(=O)n(CC(=O)NCC4CCCO4)cnc32)cc1 (configuration not stated)	-2	13	0	-0.7	-7	1
CC(=O)Nc1cccc(Oc2nc(C(F)(F)F)nc3ccccc23)c1	0	-3	-12	2.0	22	11
CC1(C)CC(NC(=O)Cc2ccc(Cl)cc2)CC(C)(C)N1	-8	9	-3	0.1	17	-8
O=C(c1ccc(OC2CCN(C/C=C/c3ccccc3)CC2)cc1)N1CCCCC1	-32	-2	25	-0.3	-4	-8
Cn1c(NCCCN2CCOCC2)nc2c1c(=O)n(Cc1ccc(Cl)cc1Cl)c(=O)n2C	1	0	-5	0.5	-12	-5
COc1ccc(Cc2nnc(SCC(=O)N3CCCCC3)o2)cc1	-3	·	-2	0.4	3	-16
CCOc1ccc(C(NC(=O)/C=C/c2ccco2)c2ccc(OC)c(OC)c2)cc1 (configuration not stated)	14	4	0	1.3	8	-1
Cc1ccc(C(=O)N2N=C(c3ccccc3O)CC2c2ccccc2)cc1 (configuration not stated)	-1	6	-20	1.1	61	10
O=C(O)c1cccc(NC(=O)c2cc(S(=O)(=O)N3CCOCC3)cs2)c1	-3	-16	5	1.1	24	-6
COc1ccc(CCNc2cc(N3CCN(C(=O)c4ccccc4F)CC3)ccc2[N+](=O)[O-])cc1OC	5	-1	-1	-0.7	3	4
COc1ccc(C)cc1Nc1c2c(nc3ccccc13)CCC2	-9	-11	-19	1.2&0.1	6&0	-9
Cc1c(C(=O)NCc2ccco2)oc2ccccc12	0	-10	?	0.9	-19	-8
Cc1cc(C(=O)CSc2nnc(NCc3ccccc3)s2)c(C)n1C	3	-4	16	-1.3	-4	-16
Cc1cc(Cl)ccc1OCC(=O)Nn1c(C)ccc1C	-10	31	0	-0.5	-11	14
CC[C@@]1(C(=O)OC)N[C@H](CN(C)C(C)=O)[C@@H]2C(=O)N(C)C(=O)[C@@H]21	-3	6	·	0.7	9	9
COc1cccc(/C=C2\SC(=S)N(NC(=O)c3ccncc3)C2=O)c1	-8	?	-1	1.2	7	?
Cc1ccc(C)c(N(CC(=O)NC2CCCCC2)C(=O)c2snc(C(N)=O)c2N)c1	-7	2	16	-0.1	-10	7
CC(C)c1ccccc1N=C1SCCN1C1CCS(=O)(=O)C1 (configuration not stated)	-2	6	-6	-1.5	0	2
CCCCCC(=O)Nc1ccc(N2CCN(C(=O)c3ccccc3)CC2)cc1	-6	0	13	1.8	2	-1
O=C(Nc1c(Cl)cccc1Cl)Oc1cccc2cccnc12	-13	-94*	·	-0.8	·	-90*
O=C(c1ccc2c(=O)n3c(nc2c1)CCC3)N1CCCSC1=Nc1ccccc1	-13	2	6	0.3	8	-1
O=C(CCc1ccc(O)c(O)c1)N/N=C/c1ccc2c(c1)OCO2	-1	-2	-21	-0.8	-14	-7
C/C(CCC(C)C)=N\Nc1ccc(S(N)(=O)=O)cc1[N+](=O)[O-]	-14	?	3	2.4	-6	-26
COc1ccc(C(=O)Nc2c(C(C)(C)C)nn(C)c2C(C)(C)C)cc1	1	2	-9	-0.2	7	6
O=C(CN1CCCCCC1)N/N=C/c1ccc2ccccc2c1	-33	·	21	·	·	-8
Cc1cccc(NC(=O)CCc2ccc(N3C(N)=NC(N)=NC3(C)C)cc2)c1	-25	-9	·	-0.3	-4	6
Cc1ccc(S(=O)(=O)N2CCN(C(C)C(=O)NCC(C)c3ccccc3)CC2)cc1 (configuration not stated)	-8	0	·	3.9	9	0
O=C(CCS(=O)(=O)c1ccccc1)Nc1ccc2c(c1)OCO2	-9	-4	-6	0.0	-16	-12
FC(F)(F)c1cc(-c2ccc3c(c2)OCO3)nc(NCc2ccco2)n1	-20	24	-3	-0.1	5	11
Cc1csc(=O)n1CC(=O)OCC(=O)NNC(=O)c1ccccc1	-11	3	0	-0.3	1	-1
NC(=O)C(=O)N/N=C1\CCc2ccccc21	-8	-4	4	-1.1	-3	-6
COc1cc(C(=O)Nc2ccc(-n3cnnn3)c(C)c2)cc(OC)c1OC	8	0	-5	0.4	-3	-1
COc1ccc(CCNC(=O)CNC(=O)c2nn(-c3ccc(OC)c(OC)c3)c(=O)c3ccccc23)cc1OC	15	1	2	-0.8	5	1
CSc1nc(N)nc(SCC(=O)CC(=O)OC(C)C)c1C#N	2	-19	8	-0.8	15	-5
CC(O)[C@H]1CNCCN1CC1(c2ccccc2)CC1 (some centres not stated)	2	1	7	0.4	5	0

Quoted from the listing.
Under Six1-Eya2 blk, COc1ccc(C(=O)Nc2c(C(C)(C)C)nn(C)c2C(C)(C)C)cc1 has the entry 6
Under CtBP-E1A blk, Cc1cc(Cl)ccc1OCC(=O)Nn1c(C)ccc1C has the entry 31

Only CtBP-E1A blk, Six1-Eya2 blk and TRPV1 PAM, for some of the entries so far:
molecule | CtBP-E1A blk | Six1-Eya2 blk | TRPV1 PAM
O=C(c1ccc2c(=O)n3c(nc2c1)CCC3)N1CCCSC1=Nc1ccccc1 | 2 | -1 | 6
O=C(CCc1ccc(O)c(O)c1)N/N=C/c1ccc2c(c1)OCO2 | -2 | -7 | -21
COc1ccc(C(=O)Nc2c(C(C)(C)C)nn(C)c2C(C)(C)C)cc1 | 2 | 6 | -9
O=C(CN1CCCCCC1)N/N=C/c1ccc2ccccc2c1 | · | -8 | 21
O=C(Nc1c(Cl)cccc1Cl)Oc1cccc2cccnc12 | -94* | -90* | ·

Next section
molecule	D2 PAM	CtBP-E1A blk	TRPV1 PAM	TRPML1 ag	TRPML1 inh	Six1-Eya2 blk
COc1ccc(NC(=O)c2cccc(NS(=O)(=O)c3ccccc3)c2)cc1	-7	·	8	-0.5	-5	-3
Cn1c(=O)n(CCc2ccccc2)c(=O)c2c1ncn2Cc1ccccc1	-7	-20	8	1.1	-20	1
COc1ccc(C(=O)CCS(=O)(=O)c2ccc(C)cc2)cc1	-9	-16	3	-0.3	-12	1
COc1cccc(OC)c1OCCN1CCN(C(=O)c2ccco2)CC1	15	0	11	-0.3	25	1
Cc1nc2ccccc2c(=O)n1NC(=O)c1ccccc1	3	?	-9	-0.9	-5	0
O=C1NC(=S)N/C1=C/c1cccnc1	-4	1	-6	·	·	0
CC(C)(C)c1ccc(C(=O)N2CCC(C(=O)N3CCCCC3)CC2)cc1	-7	7	-12	0.3	13	-1
O=C(NN1CC(C(=O)OCc2ccc(Cl)cc2Cl)CC1=O)c1ccccc1 (configuration not stated)	-2	-2	5	0.4	13	12
CC(C)(C)SCCNC(=O)CSCc1ccc([N+](=O)[O-])cc1	4	1	-41	-0.9	-1	-2
Cc1ccc(Cl)cc1N1CCN(S(=O)(=O)c2c(C)[nH]c(C)c2C(=O)N2CCCCC2)CC1	-8	·	2	0.7	-10	-16
COc1ccccc1C(=O)NC(CCSC)C(=O)NCCCSc1ccccc1 (configuration not stated)	-12	-4	4	0.7	-10	-13
CCN(C)C1CN(Cc2cn(Cc3ccc(OC)cc3)nn2)S(=O)(=O)C1 (configuration not stated)	·	5	·	-0.8	·	4
